Bioassay records: PubChem BioAssay, National Center for Advancing Translational Sciences (NCATS)
Sfp inh – inhibitors of Bacillus subtilis Sfp phosphopantetheinyl transferase. AID 1490. Potency, µM, for the others: max response, negative = inhibition, actives largely listed as inhibitors. hit rate 3.5% among 310,000. Biochemical Sfp PPTase activity, qHTS. Q9F4F7; active = well fitted inhibition curve with a large enough effect; inconclusive = small, poorly fitted or top-dose-only effect, or another doubt; inactive = no such curve, though single readings can be large or run the other way;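 also: the enzyme is Sfp with the accession as filed and its product quenches rhodamine fluorescence; potency is read from the fitted curve at half-maximal effect; 0% = enzyme reaction without inhibitor and -100% = no enzyme wells; top concentration of the series not given in the record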
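Fluorescence-quenching assay with 15 nM Sfp, 5 uM rhodamine-CoA and 12.5 uM BHQ-2-labelled ybbR peptide in pH 7.6 Hepes/MgCl2 buffer. Enzyme was pre-incubated with compound for 15 min at room temperature. Rate was taken from the 30-min fluorescence change (525/598 nm).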
TRPV1 PAM – human TRPV1 potentiation | TRPV1-expressing cells, Fluo-8 calcium influx, capsaicin EC20 potentiation; host cell line not named in the record; control for the full effect not named in the record | potentiation, % at 8.33 µM | hit rate 0.02% among 320,000 | AID 540277; active means potentiation above 80%; inconclusive means 30% to 80%; inactive means below 30%; also: 0% is about no effect
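Fluo-8 calcium influx in TRPV1-expressing cells, kinetic read (ex 480/em 520 nm). Compound added and read 3 min for agonist activity, followed by capsaicin at EC20 final and 2 min further read for enhancement.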
Menin-MLL FL inh – menin-MLL binding inhibition, fluorescein peptide; Fluorescence polarization, fluorescein-MLL peptide displacement from menin; FP activity change, % at 61.4 µM; 290,000 tested, under 10 active; inconclusive = falling polarisation curve, or a change in total fluorescence; inactive = total fluorescence flat and polarisation flat or rising; no compound was filed as active; the % refers to the polarisation; negative = inhibition;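 also: % of control where 0% means no effect; inhibitors lower the polarisation; unlabelled MLL peptide was the positive control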
ClpP mod – qHTS Assay for Activators of ClpP; ATP-dependent Clp protease proteolytic subunit (Bacillus subtilis (strain 168)), P80244; purified B. subtilis ClpP, FRET peptide cleavage, 20 min; Potency, µM (doses to about 57.5 µM), for the others: top-dose activity change, negative = active; hit rate 1.9% among 340,000; AID 651965, 2013; active = well fitted falling curve with a large enough effect; inconclusive = small, poorly fitted or top-dose-only effect; inactive = no such curve, though single readings can be large or run the other way; also: potency is read from the fitted curve at half-maximal effect; the source files actives as falling curves though it sought activators and does not explain the sign; nearly all actives have a fitted effect of over 65% in size; many hits overshoot -100%
Target sequence (P80244 whole entry, looked up): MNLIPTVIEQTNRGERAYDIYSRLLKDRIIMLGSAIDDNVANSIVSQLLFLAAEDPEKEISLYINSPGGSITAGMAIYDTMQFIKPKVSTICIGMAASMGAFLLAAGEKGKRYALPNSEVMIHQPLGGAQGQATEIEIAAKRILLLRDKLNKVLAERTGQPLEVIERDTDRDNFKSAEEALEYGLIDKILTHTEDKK
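FRET quenching reversal measured ClpP activation: 10 microg/mL B. subtilis ClpP at pH 8 with the FRET-FV decapeptide, read at 430 nm after 320 nm excitation. The 20-min minus 0-min signal was scaled between DMSO/no-enzyme wells and ADEP (5.8 microM final).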
gsp agonist – activates gsp, the McCune-Albright syndrome mutation | gsp mutant cells, cAMP HTRF, 30 min; control for the full effect not named in the record | AID 624287 | Potency, µM (top dose mostly 76.9 µM), for the others: top-dose activation (cAMP increase), most hits filed as activators | hit rate 0.13% among 340,000; active = well fitted activation curve with a large enough effect; inconclusive = small, poorly fitted or top-dose-only effect, or another doubt; inactive = no such curve, though single readings can be large or run the other way; cell line not stated here;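 also: phosphodiesterase inhibitor Ro 20-1724 added with compounds to block cAMP breakdown; potency is read from the fitted curve at half-maximal effect; nearly all actives have a fitted effect of over 60% in size; about a fifth of the inactives were tested at one dose only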
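Cells stably selected in G418 were plated at 2000/well, grown 16-24 hr, then given compounds in DMSO with the PDE inhibitor […] (300 uM solution added) for 30 min at 37C; cAMP was read by HTRF.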
D2 potentiator – positive allosteric modulators of human D2 dopamine receptor | DiscoveRx D2 beta-arrestin cells, luminescence, 90 min; 100% = 57 uM dopamine signal | hit rate 0.23% among 360,000 | P14416 | potentiation, % (test concentration not listed); active = potentiation of 50% or more; inconclusive = 30% to 50%; inactive = 30% or less;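 also: compound concentration not given in the record; tested on top of an EC20 dose of dopamine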
Target sequence (P14416 whole entry, looked up): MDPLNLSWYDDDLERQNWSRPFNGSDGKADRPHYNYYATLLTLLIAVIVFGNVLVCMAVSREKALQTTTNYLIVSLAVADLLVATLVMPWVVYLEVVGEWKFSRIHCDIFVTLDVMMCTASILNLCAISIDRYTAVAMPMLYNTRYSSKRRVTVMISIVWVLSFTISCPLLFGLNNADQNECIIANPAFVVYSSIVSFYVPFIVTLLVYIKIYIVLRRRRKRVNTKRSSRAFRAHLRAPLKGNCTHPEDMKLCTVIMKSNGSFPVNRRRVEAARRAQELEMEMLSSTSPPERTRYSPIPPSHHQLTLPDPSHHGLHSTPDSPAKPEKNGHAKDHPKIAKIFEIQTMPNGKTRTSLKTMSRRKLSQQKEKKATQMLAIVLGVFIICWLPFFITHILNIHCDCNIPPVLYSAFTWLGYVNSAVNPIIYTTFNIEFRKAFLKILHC
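PathHunter beta-arrestin assay in DiscoveRx D2 cells. Compounds were added with an EC20 of dopamine (50 nM final) for 90 min at 37 deg C. Luminescence was read 1 h after detection reagent, with 57 uM dopamine as the EC100 control.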
gsp antag – gsp mutant antagonism. hit rate 0.4% among 340,000. gsp-mutant cells, cAMP HTRF, 30 min; control for the full effect not named in the record. Potency, µM (series often up to 76.9 µM), for inactives: at the top dose activity change, negative = inhibition, usual class: inhibitors; active = falling curve of any shape with a large fitted effect; inconclusive = falling curve, mostly with a smaller effect; inactive = flat or rising curve; cell line not stated here;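 also: intracellular cAMP measured with PDE inhibitor Ro 20-1724 present during compound exposure; potency is read from the fitted curve at half-maximal effect; % is scaled to controls: 0 for no effect and ±100 for the full control effect; nearly all actives have a fitted effect of over 65% in size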
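G418-selected cells were plated in DMEM/10% FBS for 16-24 h at 37C, then treated with compounds plus the PDE inhibitor […] (300 uM solution added) for 30 min at 37C. Intracellular cAMP was measured by HTRF after 30 min lysis at room temperature.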
Numbers without * were called inactive; u = inconclusive; x = not tested or not shown; & = joins results of further samples; ! = not confirmed by another sample; [ ] = dose if it differs, or a comment.

SMILES	Sfp inh	TRPV1 PAM	Menin-MLL FL inh	ClpP mod	gsp agonist	D2 potentiator	gsp antag
Cc1ccccc1C(=O)NNC(=O)CSc1nc2ccccc2c(=O)[nH]1	12%	-2	5.1	x	21%[15.4 µM]	-8	-6%
O=C(O)COc1ccccc1/C=N/NC(=O)CSc1nc2ccccc2n1Cc1ccc(Cl)cc1	-7%	-4	0.1	-2.7%	-15%	-11	8%
CCCCn1c(=N)n(CC(O)COc2ccccc2)c2ccccc21 (stereo not given)	0%	1	2.2	4.6%	6%	-48	9%
CN(C(=O)c1ccccc1-c1ccccc1C(=O)O)c1ccccc1	20%	8	1.4	x	0%	1	13%
O=C(Nn1cnnc1)C1Cc2ccccc2CN1S(=O)(=O)c1ccc(F)cc1 (stereo not given)	5%	20	0.7	-1.6%	-6%	-7	6%
O=C(COc1ccc2c(-c3ccccc3)cc(=O)oc2c1)NC(Cc1c[nH]c2ccccc12)C(=O)O (stereo not given)	x	x	x	-0.7%	17%[15.4 µM]	-8	-6%
CCC1CCCCN1CCCNC(=O)c1c(O)nc2cc(C)ccn2c1=O (stereo not given)	4%	-6	-2.2	3.9%&3.6%	22%	-3	5%
O=C(NCc1ccccn1)C(=O)NCC1OCCN1C(=O)c1ccc(Cl)cc1 (stereo not given)	x	x	x	2.1%	-1%[15.4 µM]	-8	11%
COc1ccc(CN(C(=O)c2cc(=O)c3ccccc3o2)C2CCS(=O)(=O)C2)cc1 (stereo not given)	8%	12	2.6	-0.4%	2%	4	-13%
COc1ccc(/C=N/Nc2ccccc2)cc1Cn1nc(C)c([N+](=O)[O-])c1C	5%	7	0.5	-2.0%	u	-4	-1%
Cc1ccc(/C=C/C(=O)NC(=S)Nc2ccccc2C(=O)NC2CCCCC2)cc1	3%	x	2.6	-0.6%	-24%	6	3%
O=C(CSCc1ccccc1Cl)Nc1c[nH]c(=O)[nH]c1=O	-23%	8	-0.9	28µM*	-23%	5	16%
CCN(C(=O)c1c(OC)cccc1OC)c1nnc(-c2cccnc2)s1	19%	4	-3.2	-4.4%	30%	0	-1%
CCOC(=O)Cc1csc(NS(=O)(=O)c2ccccc2)n1	24%	-7	3.6	-0.7%	-7%	-3	0%
CC(=O)Nc1ccc(NS(=O)(=O)c2cc(-c3n[nH]c(=O)c4ccccc34)ccc2C)cc1	14%	11	4.0	x	2%[15.4 µM]	-2	-7%
CC(NC(=O)c1ccccc1)C(=O)OCC(=O)N1c2ccccc2Sc2ccccc21 (stereo not given)	-14%	9	2.4	-3.8%	8%	-33	-19%
COCCCNCCOc1ccc(C(C)(C)c2ccccc2)cc1	-15%	-3	1.5	-11%	-12%[15.4 µM]	-17	20%
O=C(O)c1cccc(N/N=C(\N=Nc2ccccc2)c2ccccc2)c1	x	u	x	-4.3%	x	-22	-9%
CCOc1cc(CNS(=O)(=O)c2cn(C)cn2)cc(OCC)c1OCC	7%	23	x	1.1%	-27%	-28	-4%
CC(C)Cn1c(N)c(C(=O)CSc2nncs2)c(=O)n(C)c1=O	x	7	x	0.8%	6%	-1	-1%
CCN1CCN(c2ccc(S(=O)(=O)N3CCCCC3)cc2NC(=O)c2sccc2C)CC1	x	-7	x	-2.0%	u	26	3%
COc1c2ccoc2nc2c(OC)c(O)ccc12	14%	-6	-4.9	-8.5%	-21%	-4	7%
O=C1C(SCCO)=C(SCCO)C(=O)c2ccccc21	0.28µM*!	4	x	1.5%&0.6%&9.2%	x	-32	35µM*
CCCCOc1ccc(/C=C(\C#N)C(=O)NC2CC2)cc1	x	x	x	x	-23%[15.4 µM]	-8	11%
Cc1ccc(C(NC(=O)N2CCOCC2)C(Cl)(Cl)Cl)cc1F (stereo not given)	5%	-5	1.0	-0.2%	15%	-1	0%

Six entries already listed, ordered by formula weight, rising.
SMILES	Sfp inh	TRPV1 PAM	Menin-MLL FL inh	ClpP mod	gsp agonist	D2 potentiator	gsp antag
O=C1C(SCCO)=C(SCCO)C(=O)c2ccccc21	0.28µM*!	4	x	1.5%&0.6%&9.2%	x	-32	35µM*
COCCCNCCOc1ccc(C(C)(C)c2ccccc2)cc1	-15%	-3	1.5	-11%	-12%[15.4 µM]	-17	20%
CN(C(=O)c1ccccc1-c1ccccc1C(=O)O)c1ccccc1	20%	8	1.4	x	0%	1	13%
CC(NC(=O)c1ccccc1)C(=O)OCC(=O)N1c2ccccc2Sc2ccccc21 (stereo not given)	-14%	9	2.4	-3.8%	8%	-33	-19%
CC(=O)Nc1ccc(NS(=O)(=O)c2cc(-c3n[nH]c(=O)c4ccccc34)ccc2C)cc1	14%	11	4.0	x	2%[15.4 µM]	-2	-7%
CCN1CCN(c2ccc(S(=O)(=O)N3CCCCC3)cc2NC(=O)c2sccc2C)CC1	x	-7	x	-2.0%	u	26	3%

The list goes on.
SMILES	Sfp inh	TRPV1 PAM	Menin-MLL FL inh	ClpP mod	gsp agonist	D2 potentiator	gsp antag
Cc1ncc(CO)c(/C=N/NC(=O)c2ccoc2C)c1O	x	-4	x	25µM*	-13%[15.4 µM]	-31	9%
CCc1ccc(N(CC(=O)N2CCCCCC2)S(C)(=O)=O)cc1	12%	-1	-2.1	x	-22%	-8	12%
CCOC(=O)c1cn(CC)c2ccc(S(=O)(=O)N3CC(C)CC(C)C3)cc2c1=O (stereo not given)	5%	-10	13	0.7%	u	4	-11%
CC(Oc1ccc2c3c(c(=O)oc2c1)CCCC3)C(=O)NCCN1CCOCC1 (stereo not given)	17%	4	2.5	4.1%	13%	-14	7%
CCOc1ccc(/C=N/OCC(=O)Nc2ccc(OCc3ccccc3)cc2)cc1OC	u	-13	-21	x	-1%[15.4 µM]	2	6%
Cc1ccc(NC(=O)c2cccc(OC(F)F)c2)c(OC(F)F)c1	3%	-16	0.4	0.4%	2%	-15	7%
O=P(O)(CN1CCCCC1)CN1CCCCC1	10%	-20	5.8	x	x	x	x
Cc1ccc(N(CC(=O)Nc2ccc(F)c(Cl)c2)S(=O)(=O)c2c(C)noc2C)cc1	21%	15	2.9	-1.0%	-16%	-14	-14%
CCCN(CC(=O)Nc1ccc(Cl)cc1Cl)C(=O)/C=C/c1cc(OC)ccc1OC	22%	2	7.8	16µM*	8%	-32	-13%
O=c1c2c(nc3c(-c4ccccc4)c[nH]n13)CCC2	5%	-4	8.8	25µM*	17%	-25	-12%
O=C(Cn1nc(-c2ccc(Cl)cc2)ccc1=O)NCC1COCCO1 (stereo not given)	19%	-4	x	x	u	-6	-8%
CC(=O)c1ccc(OC(=O)COc2ccccc2)cc1	-6%	-13	-6.4	-1.6%	9%	1	0%
CCOC(=O)N1CCN(C(=O)CSc2nc(CC)nc3c2c(=O)n(C)c(=O)n3C)CC1	-24%	x	2.0	-1.9%	u	1	-15%
CC(C)N1C(=O)C(O)(C2COC(C)(C)CC2=O)c2ccccc21 (stereo not given)	14%	5	-1.1	-5.3%	-15%	-2	7%
CNc1ncc(C(=O)c2ccc(F)cc2)s1	5%	u	1.4	x	-4%	-4	-5%
COc1ccc(CCNC(=O)CSc2ncc(C(=O)Nc3ccccc3)c(=O)n2C)cc1	x	u	x	0.0%	-7%[15.4 µM]	-32	-6%
COc1ccc(C(NC(=O)CC(C)C)NC(=O)CC(C)C)cc1OC	17%	-7	1.0	0.6%	-1%	-1	-2%
CC(=O)Oc1cccc(/C=C2\Sc3ccccc3C2=O)c1	-1%	x	u	x	15%	4	3%
O=C(Nc1ccc(SC(F)F)cc1)c1ccc(F)cc1	12%	-8	2.5	1.2%	-2%	-2	-2%
O=C(O)Cc1c(-c2ccccc2)c2cc(Br)ccc2[nH]c1=O	19%	3	-3.2	-2.4%	u	-5	11%
CN=c1scc(-c2ccccc2F)n1/N=C/c1ccc(O)c(O)c1O	3.2µM*	3	17	0.2%	3%[15.4 µM]	173*	16%
O=C(CN(C(=O)c1csnn1)c1ccccc1Cl)NC1CCCC1	20%	20	2.5	x	10%[15.4 µM]	-4	8%
Cc1ccnc(NS(=O)(=O)c2ccc(NC(=O)C34CC5CC(C)(CC(C)(C5)C3)C4)cc2)n1	2%	17	1.1	-1.5%	1%	0	-11%
COc1ccc(C(F)(F)F)cc1N/C=C\c1nnnn1-c1ccccc1	2%	x	-1.1	u	2%	6	-5%
CCOC(=O)N1CCN(C(=O)C2CCN(Cc3nc(-c4ccccc4C)oc3C)CC2)CC1	12%	22	2.5	-0.1%	-1%	-9	4%

(continued)
SMILES	Sfp inh	TRPV1 PAM	Menin-MLL FL inh	ClpP mod	gsp agonist	D2 potentiator	gsp antag
CCc1ccc(Nc2nnc(SCC(=O)N(C)CC(=O)Nc3ccccc3CC)s2)cc1	4%	3	-0.6	-3.6%	-17%	11	-7%
CCOC(=O)N1CCC(N(CCCOC)C(=O)Nc2cccc(OC)c2)CC1	8%	-8	-1.3	-2.0%	-32%[inhibitor]	-7	0%
COc1ccc(/C=N/NC(=O)c2cc3cc(OC)c(OC)cc3[nH]2)cc1	-12%	7	-1.5	3.2%	5%	-3	-6%
COc1ccc(CCn2nnnc2C(C(C)C)N2CCN(c3ncccn3)CC2)cc1OC (stereo not given)	11%	10	1.3	2.2%	-32%[inhibitor]	6	1%
CC(NC(=O)OCc1ccccc1)C(=O)NCC(=O)NC(Cc1ccc(OC(C)(C)C)cc1)C(=O)OC(C)(C)C (stereo not given)	2%	-5	-0.2	1.1%	-14%	-1	6%
COc1ccc(OC)c(-n2c(SC)nnc2-c2c[nH]c3ccccc23)c1	-2%	9	-2.8	-7.2%	-50%[inhibitor]	2	-10%
O=C(CCN1CCCCC1)NCC1OCCc2ccccc21 (stereo not given)	8%	6	0.6	-2.2%	-41%	-17	5%
COc1ccc(N2CCN(C(=O)NC(=O)c3ccccc3)CC2)cc1	10%	-3	x	-3.6%	-23%	-14	7%
CN1C(C(=O)Nc2ccc(OC(F)(F)F)cc2)=CC(c2ccco2)=NS1(=O)=O	21%	15	x	x	11%	-1	-10%
Cc1cnc(NC(=O)Cc2ccc(S(=O)(=O)N3CCOCC3)s2)s1	x	x	x	2.5%	-4%	0	6%
